High-throughput results as filed in PubChem BioAssay.
2A Renilla: Primary qHTS Assay for Foot and Mouth Disease Virus Antivirals against NCGC Sytravon and CBC Compound Libraries: Renilla Luciferase Signal; HEK cells with a luciferase reporter of 2A StopGo recoding; Potency, µM (series often up to 57.5 µM), without a hit: at the highest dose signal change, negative = less light; 120,000 tested, 0.32% active; active means well fitted falling curve with a large enough effect; inconclusive means small, poorly fitted or top-dose-only effect; inactive means no such curve, though single readings can be large or run the other way; further: nearly all actives have a fitted effect of over 55% in size; overnight with compound
2A firefly: Primary qHTS Assay for Foot and Mouth Disease Virus Antivirals against NCGC Sytravon and CBC Compound Libraries: Firefly Luciferase Signal. HEK cells with a luciferase reporter of 2A StopGo recoding. AID 1745856, 2022. 120,000 tested, 0.23% active. Potency, µM (titrated, usually from 57.5 µM), inactives show at the highest dose signal change, negative = less light; active = well fitted falling curve with a large enough effect; inconclusive = small, poorly fitted or top-dose-only effect; inactive = no such curve, though single readings can be large or run the other way; further: nearly all actives have a fitted effect of over 60% in size; overnight with compound
* marks the source's active call; other numbers are inactive results; ? = inconclusive; & = joins results of further samples; [ ] = another dose, or the depositor's remark. On the % scale 0 is the no-effect control and ±100 the full control effect; potency means the concentration at half of the fitted maximal effect. The list is partial; the hit share may differ from the screen's.

no.	smiles	2A Renilla	2A firefly
1	Cc1oc2cc(OS(=O)(=O)c3cccs3)ccc2c(=O)c1-c1ccccc1	?	?
2	CC(C)(C)c1ccc(C(=O)NC(Nc2cccc(Cl)c2)C(Cl)(Cl)Cl)cc1 (stereo unspecified)	?	?
3	O=C(N/N=C/C(Cl)=C\c1ccccc1)C1CC1	10%	164%[activator]
4	Cc1cccc(-n2nnc3c(sc4nc(C)c(C)cc43)c2=O)c1	9%	130%[activator]
5	O=C(CNC(=O)c1cccs1)NCC1COc2ccccc2O1 (stereo unspecified)	42%[activator]	12%
6	COC(=O)c1ccc2nc(C)cc(Nc3ccc(OC)cc3)c2c1	-19%	1%
7	Cc1cc(C(c2ccccc2Cl)N2CCN(C)CC2)c(NC(=O)c2ccco2)s1 (stereo unspecified)	-27%	-30%
8	CC1CCCCN1CCCNC(=O)c1cc(Sc2cccc(Cl)c2)nc2ccccc12 (stereo unspecified)	8%	-24%
9	COc1cc(NC(=O)N2CCN(c3ccc(=O)n(-c4ccc(F)cc4)n3)CC2)cc(OC)c1OC	20%	0%
10	Cc1ccccc1Nc1sc(C(=O)c2ccccc2)c(N)c1S(C)(=O)=O	-11%	-18%
11	CC(/C=N/NC(=O)c1ccc(C)cc1)=C\c1ccccc1	46%[activator]	148%[activator]
12	O=C(O)CNS(=O)(=O)c1ccccc1	3%	?
13	Fc1ccc(-c2cnc(/C(Cl)=C\c3ccc(OC(F)F)cc3)o2)cc1	12%	0%
14	NC(=O)C1CC(O)CN1 (stereo unspecified)	-2%	-6%
15	Cc1onc(-c2c(Cl)cccc2Cl)c1C(=O)Cl	42%[activator]	-14%[11.5 µM]
16	CCC1(CC)NC(=O)N(CC(=O)c2cn(CCC#N)c3ccccc23)C1=O	50%[activator]	13%
17	CC(=O)c1c(C)[nH]c(C(=O)C(C)n2cnc3c2c(=O)n(C)c(=O)n3C)c1C (stereo unspecified)	10%	0%
18	CC(C)(C)C(=O)Nc1ccc2oc(-c3cccnc3)nc2c1	8%	173%[activator]
19	COc1cc2c(c(OC)c1OC)-c1ccc(OC)c(=O)cc1C(NC(C)=O)CC2 (stereo unspecified)	50%[activator]	31%
20	COc1ccc(NC(=O)c2nn(C)c3c2CSc2ccc(C)cc2-3)cc1OC	0%	-14%
21	CCN(CC)C(=O)CSc1nc2ccsc2c(=O)n1-c1cc(F)cc(F)c1	0%	16%
22	Cc1cc(C)c(NC(=O)c2cc(C)nc3c2c(C)nn3-c2cccc(F)c2)c(C)c1	5%	0%
23	Cn1nnnc1SCCCNCc1cccc(OCc2ccccc2F)c1	11%	74%[activator]
24	O=C(CSc1cnc2ccccc2n1)c1ccc2c(c1)OCCO2	0%	13%
25	CCc1ccc(NC(=O)CCC2CCCCC2)cc1	-4%	0%
26	O=C(O)c1ccc2oc(=O)n(Cc3ccccc3)c2c1	33%[activator]	46%[activator]
27	CC(C)N(C(=O)Cn1cc(S(=O)(=O)Cc2ccc(C(F)(F)F)cc2)c2ccccc21)C(C)C	2%	-8%
28	N#C/C(=C\c1c[nH]c2ccccc12)C(=O)Nc1ccccc1O	5%	243%[activator]
29	CCOC(=O)C(CC(C(=O)OCC)C(=O)OCC)C(=O)OCC	-3%	-12%
30	CS(=O)(=O)c1ccc2nc(NC(=O)Cc3ccc(Cl)cc3)sc2c1	12%	14%
31	COc1ccc(CCNC(=O)Cn2nnc(-c3cccc(C(F)(F)F)c3)n2)cc1OC	-1%	0%
32	O=C(Nc1cccc2[nH]ccc12)C(=O)NC1CCCCC1	-7%	163%[activator]
33	CC(CC#N)N1CCN(c2ncccn2)CC1 (stereo unspecified)	-4%	-17%
34	Cc1cc(N2CCN(S(=O)(=O)c3ccc(Cl)cc3C(F)(F)F)CC2)nc(C(C)C)n1	4%	11%
35	O=C(NCC(O)COc1cccc(C(F)(F)F)c1)C1CCCCC1 (stereo unspecified)	108%[activator]	9%
36	c1ccc(Nc2nc(NC3CCCC3)nc3c2cnn3-c2ccccc2)cc1	15%	23%
37	CC(NC(=O)C1CCN(S(=O)(=O)c2cccc(OC(F)(F)F)c2)CC1)c1cccnc1 (stereo unspecified)	-8%	-10%
38	COc1cc(NC(=O)CC(C)n2nc(C)cc2C)cc(OC)c1 (stereo unspecified)	-9%	-24%
39	Cc1cccc(CN2CCN(CC(=O)Nc3c(C)cccc3C)S2(=O)=O)c1	-5%	-12%
40	Cc1ccc(NC(=O)CSc2nc3c(sc4ccccc43)c(=O)n2CCCC(=O)NC2CCCC2)cc1C	0%	-18%
41	COCCNC(=O)COC(=O)c1cc(-c2ccc(F)cc2)nc2ccccc12	4%	66%[activator]
42	Cc1occc1-c1nnc(SC(C)C(=O)NCc2ccccc2)o1 (stereo unspecified)	19%	18%
43	Cc1cc(C)c(OCC(=O)Nc2nonc2-c2ccc(Cl)cc2)c(C)c1	-7%	-10%
44	CCOc1ccc(C(C)=O)cc1CN(C)Cc1ccc(C)cc1	-12%[1.06 µM]	4%
45	COc1ccc(C)cc1COc1ccc(C#N)cc1OC	?	?
46	CCCc1cc(C(=O)Nc2c(C)nn(Cc3ccc(C)cc3)c2C)no1	?	?
47	Cc1nc2nc(C)c(NS(=O)(=O)c3ccc(CC(C)C)cc3)c(=O)n2[nH]1	0%	-20%
48	COc1cccc(CNC(=O)Cn2c(=O)c3c(ncn3C)n(C)c2=O)c1	-2%	8%
49	CCN1CCN(c2ccc(S(=O)(=O)N(CC)CC)cc2NC(=O)CCC2CCCC2)CC1	-8%	-7%
50	Fc1ccc(-c2nc(Nc3ccc(F)c(Cl)c3)nc3c2COc2ccccc2-3)cc1	12%	8%
51	CCSc1nnc2c(n1)OC(c1ccc(C)cc1)N(C(C)=O)c1ccccc1-2 (stereo unspecified)	-5%	3%
52	O=C(CSc1nc2c(c(=O)[nH]1)CCC2)Nc1ccccc1F	12%	-2%
53	Cc1cccc(OCC(=O)Nc2ccc(Cl)c(-c3nc4ncccc4o3)c2)c1C	12%	-1%
54	COc1ccc(NC(=O)CN(C)c2nc(CN3CCOCC3)nc3sc(C)c(C)c23)cc1	-2%	0%
55	CCOc1c(Br)cc(C2CC(=O)Nc3cc4c(cc32)OCO4)cc1OC (stereo unspecified)	-5%	-14%
56	N#Cc1ccccc1COC(=O)c1ccc(Br)cc1	-3%	5%
57	NC(=O)c1nn(CC(=O)NC2CCCCCC2)c(=O)c2ccccc12	6%	14%
58	CCOc1ccccc1C(=O)Nc1ccc(S(=O)(=O)Nc2nc(C)cc(C)n2)cc1	?	-11%
59	Cc1cc(C)cc(-c2nnc(SCC(=O)N3CCC3)o2)c1	-11%	59%[activator]
60	COc1ccccc1NC(=O)CSc1nc2ccccc2o1	12%	162%[activator]

An excerpt from above in order of formula weight, highest first:
no.	smiles	2A Renilla	2A firefly
27	CC(C)N(C(=O)Cn1cc(S(=O)(=O)Cc2ccc(C(F)(F)F)cc2)c2ccccc21)C(C)C	2%	-8%
49	CCN1CCN(c2ccc(S(=O)(=O)N(CC)CC)cc2NC(=O)CCC2CCCC2)CC1	-8%	-7%
55	CCOc1c(Br)cc(C2CC(=O)Nc3cc4c(cc32)OCO4)cc1OC (stereo unspecified)	-5%	-14%
53	Cc1cccc(OCC(=O)Nc2ccc(Cl)c(-c3nc4ncccc4o3)c2)c1C	12%	-1%
1	Cc1oc2cc(OS(=O)(=O)c3cccs3)ccc2c(=O)c1-c1ccccc1	?	?
51	CCSc1nnc2c(n1)OC(c1ccc(C)cc1)N(C(C)=O)c1ccccc1-2 (stereo unspecified)	-5%	3%
43	Cc1cc(C)c(OCC(=O)Nc2nonc2-c2ccc(Cl)cc2)c(C)c1	-7%	-10%
36	c1ccc(Nc2nc(NC3CCCC3)nc3c2cnn3-c2ccccc2)cc1	15%	23%
48	COc1cccc(CNC(=O)Cn2c(=O)c3c(ncn3C)n(C)c2=O)c1	-2%	8%
42	Cc1occc1-c1nnc(SC(C)C(=O)NCc2ccccc2)o1 (stereo unspecified)	19%	18%
52	O=C(CSc1nc2c(c(=O)[nH]1)CCC2)Nc1ccccc1F	12%	-2%
15	Cc1onc(-c2c(Cl)cccc2Cl)c1C(=O)Cl	42%[activator]	-14%[11.5 µM]
14	NC(=O)C1CC(O)CN1 (stereo unspecified)	-2%	-6%

(more compounds)
no.	smiles	2A Renilla	2A firefly
61	Cc1cc(C)cc(NC(=O)C(CC(C)C)NC(=O)C2CCCCC2)c1 (stereo unspecified)	5%	0%
62	CCOc1ccc(NC(=O)c2ccc3c(c2)NC(=O)CS3)cc1	12%	42%[activator]
63	CCOC(=O)c1ccccc1NC(=O)N1CCCN(S(=O)(=O)c2ccc3c(ccn3CC)c2)CC1	71%[activator]	52%[activator]
64	COc1cc(NC(=O)C(CC(C)C)NS(=O)(=O)c2ccc3c(c2)oc(=O)n3C)c(C(=O)O)cc1OC (stereo unspecified)	-3%	0%
65	CCc1ccc(NC(=O)C(C#N)Cc2ccccc2OC)cc1 (stereo unspecified)	104%[activator]	32%[activator]
66	COc1ccc(-c2nc(CS(=O)CC(=O)NCC(OC)OC)c(C)o2)cc1OC (stereo unspecified)	-3%	2%
67	O=C(NC1CCCCC1)c1cc(Sc2ccc(Cl)cc2)nc2ccccc12	9%	0%
68	COc1ccccc1CNC(=O)CCC1N=C2c3ccccc3N=C(SCc3ccc(C)cc3)N2C1=O (stereo unspecified)	39%[activator]	38%[activator]
69	Cc1cccc(OCC(=O)Nc2cc(-c3nn(C)c(=O)c4ccccc34)ccc2N2CCCCC2)c1	3%	13%
70	Cc1cc(OCC(=O)Nc2c(C(=O)c3ccccc3)oc3ccccc23)cc(C)c1Cl	0%	-11%
71	O=S(=O)(NCc1ccc(Cl)cc1)c1ccc(N2CCCCS2(=O)=O)cc1	5%	?
72	C=CCNc1nc2c(c(=O)[nH]c(=O)n2C)n1CCCc1ccccc1	13%	16%
73	O=C(c1cc2ccccc2o1)c1cc(F)ccc1F	16%	31%[activator]
74	CC(=O)N1CCCc2cc(S(=O)(=O)N3CCCC(C(=O)N4CCN(c5ccccc5F)CC4)C3)ccc21 (stereo unspecified)	?	?
75	COC(=O)c1sc2cccc(F)c2c1S(=O)(=O)Nc1cc(C)c(Cl)cc1OC	197%[activator]	-26%
76	CCCC(C)NC(=O)CN1CCN(c2cccc(C(F)(F)F)c2)CC1 (stereo unspecified)	10%	14%
77	CCCCn1c(=O)[nH]c(=O)c2c1nc(CNc1ccc(C)c(F)c1)n2CCC(C)C	-12%	-25%
78	CN(Cc1cccc(F)c1)C(=O)CCc1ncc(-c2c(F)cccc2F)o1	26%	16%
79	COc1ccccc1-n1c(=O)c2c3c(sc2n(C)c1=O)CN(C(C)=O)CC3	32%[activator]	43%[activator]
80	CC(C)CNC(=O)NC(=O)C(C)Sc1nc(-c2ccco2)nc2ccccc12 (stereo unspecified)	-21%	-11%
81	CCOc1ccc(CCNC(=O)c2cc3sccc3n2CC)cc1OCC	?	?
82	CC1CCc2noc(NC(=O)c3ccc([N+](=O)[O-])cc3)c2C1 (stereo unspecified)	29%	78%[activator]
83	CN(C)S(=O)(=O)c1ccc2c(c1)N(CC(=O)N1CCN(c3cccc(Cl)c3)CC1)CCS2	-4%	-6%
84	CCOC(=O)c1nc(Nc2cccc(C)c2)c2ccccc2n1	35%&26%[activator]	42%&15%[activator]
85	Cc1cccc(-n2c(/C=C/c3cccc4ccccc34)nc3ccccc3c2=O)c1	?	?
86	COc1ccc(CCNC(=O)c2csc(NC3CC3)n2)cc1	-7%	24%
87	CCCOc1ccc(NC(=O)c2nn(CCC)c(=O)c3ccccc23)cc1OCCC	-2%	8%
88	Cc1cccc(C2C3=C(COC3=O)Nc3c2c(=O)n(C)c(=O)n3C)c1 (stereo unspecified)	8%	13%
89	CCOc1cccc2sc(N(CCN(CC)CC)C(=O)c3ccco3)nc12	-21%	0%
90	COCCCNC(=O)c1ccc(CSc2nc3cccnc3n2Cc2ccc(OC)cc2)cc1	34%[activator]	32%[activator]
91	CC(Cn1cccn1)NC(=O)N1CCN(Cc2ccncc2)CC1 (stereo unspecified)	-11%	-7%
92	O=C(Nc1c(-c2ccccc2)nc2ccccn12)c1ccccc1F	2%	9%
93	CCOC(=O)c1c(C)oc2nc(C)nc(NCCCN3CCN(c4cc(C)ccc4C)CC3)c12	-10%	-11%
94	O=C(Nc1ccc2oc(-c3cccnc3)nc2c1)c1ccc(Cl)c(Cl)c1	6%	18%
95	CCc1ccccc1NC(=O)CSc1nc2n[nH]c(C)c2c(=N)n1-c1cccc(C)c1	18%	-20%
96	CCCCC(=O)Nc1ccc(C(=O)OCc2cc(=O)n3nc(C4CC4)sc3n2)cc1	-12%	-12%
97	CC(NC(=O)Cc1ccccc1)C12CC3CC(CC(C3)C1)C2 (stereo unspecified)	16%	3%
98	CCCc1ccc(OCc2ccc(C(=O)O)cc2)cc1	-1%	?
99	Cc1nc2cc(NC(=O)C3CC(=O)N(c4cccc5ccccc45)C3)ccc2o1 (stereo unspecified)	8%	16%
100	CCN(CC)c1ccc2cc(-c3nc(-c4cc(OC)c(OC)c(OC)c4)no3)c(=O)oc2c1	-1%	11%
101	O=C(/C=C/c1ccc(Cl)cc1Cl)N[C@@H]1C[C@H]2CC[C@@H]1C2	51%[activator]	155%[activator]
102	CC(Sc1ncnc2nc[nH]c12)C(=O)Nc1ccc(OC(F)(F)F)cc1 (stereo unspecified)	9%	14%
